Yeast UUG start: modulators of start codon recognition fidelity in yeast | S. cerevisiae UUG-firefly luciferase reporter, luminescence/redox ratio | activity score, % at 18.7 µM | actives 0.13% (n = 350,000) | AID 602363;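 active = replicate mean at a twofold rise or more, about +100% in these data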;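 note: firefly luciferase made from a UUG start codon reports start codon fidelity; reporter light over untreated wells divided by growth signal over untreated wells; some hits fall short of that in this replicate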
The depositor's hits bear a star. An excerpt (hit frequency here may not be typical).

SMILES	Yeast UUG start
COCC#Cc1ccc([C@@H]2[C@H]3CN(C(=O)NC4CCCC4)CCCCN3[C@H]2CO)cc1	1.5
OC[C@H]1[C@@H](c2ccc(-c3cccc(F)c3)cc2)[C@@H]2CN(CCC(F)(F)F)CCCCN12	4.8
O=C(c1ccccn1)N1CC[C@@H]2[C@H](CO)Nc3ccc(Br)cc3[C@@H]21	-17.7
CC(C)NC(=O)Nc1ccc2c(c1)CC(=O)N([C@H](C)CO)C[C@H](C)[C@H](CN(C)C(=O)Nc1ccc(C(F)(F)F)cc1)O2	0.4
CO[C@H]1CN(C)C(=O)c2cc(NC(=O)c3ccccc3)ccc2OC[C@@H](C)N(C(=O)CN(C)C)C[C@H]1C	-5.4
CCCNC(=O)C[C@H]1C[C@@H]2c3cc(NC(=O)Nc4ccc(OC)cc4)ccc3O[C@@H]2[C@H](CO)O1	-10.5
CC(C)(O)C#Cc1ccc([C@@H]2[C@@H](CO)N3CCCCN(C(=O)c4cccnc4)C[C@H]23)cc1	-18.6
CC=Cc1ccc2n(c1=O)C[C@@H]1[C@@H](CO)[C@H](C(=O)NCCC)[C@H]2N1CC1CC1 (mixture of isomers)	7.9
CCC(=O)Nc1ccc2c(c1)OC[C@H](C)N(Cc1ccccc1OC)C[C@@H](C)[C@H](OC)CN(C)C2=O	-4.4
C[C@H](CO)N1C[C@H](C)[C@@H](CN(C)Cc2ccc(Cl)c(Cl)c2)Oc2ccc(NC(=O)C3CC3)cc2C1=O	4.1
CO[C@H]1CN(C)C(=O)c2cc(NC(=O)c3ccc(-c4ccccc4)cc3)ccc2OC[C@H](C)NC[C@H]1C	12.3
N#Cc1cccc(-c2ccc3c(c2)[C@H]2[C@H](CCN2S(=O)(=O)c2ccccc2F)[C@H](CO)N3)c1	-18.7
C[C@@H]1CN([C@@H](C)CO)C(=O)c2cccc(NC(=O)NC3CCCCC3)c2O[C@@H]1CN(C)S(C)(=O)=O	-22.0
CN1c2ccc(C#Cc3ccccc3F)cc2[C@H]2[C@H](CCN2C(=O)c2cnccn2)[C@H]1CO	-2.2
CO[C@H]1CN(C)C(=O)c2cc(NC(=O)c3ccc(F)cc3)ccc2OC[C@H](C)N(C(=O)c2ccc(F)cc2)C[C@H]1C	0.8

Not a retest: an excerpt of the list.
SMILES	Yeast UUG start
COCC#Cc1ccc([C@@H]2[C@H]3CN(C(=O)NC4CCCC4)CCCCN3[C@H]2CO)cc1	1.5
OC[C@H]1[C@@H](c2ccc(-c3cccc(F)c3)cc2)[C@@H]2CN(CCC(F)(F)F)CCCCN12	4.8

Next part:
SMILES	Yeast UUG start
C[C@@H]1CN([C@@H](C)CO)C(=O)c2cccc(NC(=O)c3nc4ccccc4s3)c2O[C@H]1CN(C)Cc1ccc(C(F)(F)F)cc1	-13.8
CCCNC(=O)Nc1ccc2c(c1)OC[C@@H](C)N(C(=O)C1CC1)C[C@@H](C)[C@@H](OC)CN(C)C2=O	5.9
O=C(C[C@H]1CC[C@H]2[C@@H](COC[C@@H](O)CN2S(=O)(=O)c2cccc(Cl)c2)O1)NCc1ccc2c(c1)OCO2	3.9
CN1C(=O)c2cc(NS(C)(=O)=O)ccc2OC[C@H]2O[C@@H](CC(=O)O)CC[C@H]21	-4.4
C/C=C/c1ccc([C@H]2[C@@H](CO)N(C(=O)CC)[C@@H]2CNC(=O)C2CC2)cc1	12.5
Cc1ccc(S(=O)(=O)N2C[C@@H](O)COC[C@@H]3O[C@@H](CC(=O)N[C@@H]4CCN(Cc5ccccc5)C4)CC[C@H]32)cc1	9.8
COc1cccc(-c2ccc([C@H]3[C@@H](CO)N4CCCCN(C(=O)c5ccc6c(c5)OCO6)C[C@H]34)cc2)c1	2.2
CCC(=O)NC[C@@H]1N[C@@H](CO)[C@H]1c1ccc(-c2cccc(C#N)c2)cc1	1.4
CO[C@H]1CN(C)C(=O)c2ccc(NC(C)=O)cc2OC[C@H](C)N(C(=O)c2ccncc2)C[C@@H]1C	15.4
COc1ccc(-c2ccc3c(c2)[C@@H]2[C@@H](CCN2S(=O)(=O)c2ccc(OC)cc2)[C@@H](CO)N3)cc1	-12.7
O=C(C[C@@H]1CC[C@H]2[C@@H](COC[C@H](O)CN2S(=O)(=O)c2ccccc2Cl)O1)NCc1ccccc1Cl	9.9
OC[C@H]1[C@H](c2ccc(-c3ccc(F)cc3)cc2)[C@H]2CN(Cc3cccnc3)CCCCN21	-12.7
C[C@@H]1CN([C@@H](C)CO)C(=O)c2cc(NS(C)(=O)=O)ccc2O[C@H]1CN(C)C(=O)NC1CCCCC1	-16.4
CO[C@H]1CN(C)C(=O)c2cc(NC(=O)C3CCC3)ccc2OC[C@H](C)N(Cc2cccnc2)C[C@@H]1C	-4.6
CO[C@@H]1CN(C)C(=O)c2ccc(NS(C)(=O)=O)cc2OC[C@H](C)NC[C@@H]1C	-25.2

SMILES	Yeast UUG start
COc1ccc(NC(=O)N(C)C[C@@H]2Oc3ccc(NS(=O)(=O)c4cn(C)cn4)cc3C(=O)N([C@@H](C)CO)C[C@H]2C)cc1	-5.1
CO[C@H]1CN(C)C(=O)c2cc(NC(=O)C3CC3)ccc2OC[C@@H](C)N(Cc2ccncc2)C[C@@H]1C	9.7
COc1ccccc1C(=O)N1C[C@H]2[C@@H](c3ccccc31)[C@H](CO)N2C(=O)Cc1ccccc1	0.3
CC=Cc1ccc2n(c1=O)C[C@@H]1[C@@H](CO)[C@H](C(=O)N3CCCCC3)[C@H]2N1CC1CCCC1 (mixture of isomers)	3.6
CN(C)C(=O)c1ccc(-c2ccc3c(c2)[C@@H]2[C@@H](CCN2Cc2cncnc2)[C@@H](CO)N3)cc1	-14.2
CCCNC(=O)C[C@H]1CC[C@H]2[C@@H](COC[C@@H](O)CN2C(=O)c2ccccn2)O1	-15.6
C[C@H](CO)N1C[C@H](C)[C@@H](CN(C)C)Oc2ccc(NS(C)(=O)=O)cc2CC1=O	-1.4
O=C(C1CCOCC1)N1C[C@@H]2[C@H](c3ccccc31)[C@@H](CO)N2C(=O)Cc1ccccn1	8.8
COc1ccc(CN(C)C[C@H]2Oc3ccc(NS(=O)(=O)c4ccc(Cl)cc4)cc3C(=O)N([C@@H](C)CO)C[C@@H]2C)cc1	-8.7
Cc1ccc(S(=O)(=O)Nc2ccc3c(c2)C(=O)N([C@H](C)CO)C[C@@H](C)[C@H](CN(C)Cc2ccc(Cl)c(Cl)c2)O3)cc1	8.9
O=S(=O)(c1ccccc1F)N1CCCCN2[C@H](C1)[C@H](c1ccc(-c3cccnc3)cc1)[C@@H]2CO	-16.6
CCC(=O)N1C[C@H]2[C@@H](c3ccccc31)[C@@H](CO)N2C(=O)CC1CC1	-10.9
COc1cccc(-c2ccc3c(c2)[C@H]2[C@H](CCN2S(=O)(=O)c2ccc(F)cc2)[C@H](CO)N3C)c1	17.1
CCC(=O)Nc1ccc2c(c1)C(=O)N(C)C[C@H](OC)[C@@H](C)CN(C(=O)c1cnccn1)[C@@H](C)CO2	9.0
O=C(CC1CC1)N1CC[C@@H]2[C@@H](CO)Nc3ccc(-c4ccccc4)cc3[C@@H]21	0.8

SMILES	Yeast UUG start
CO[C@H]1CN(C)C(=O)c2ccc(NC(=O)c3cc(C)on3)cc2OC[C@@H](C)N(C(=O)C2CC2)C[C@@H]1C	-10.1
COc1ccccc1CNC(=O)C[C@H]1CC[C@@H]2[C@H](COC[C@H](O)CN2C(=O)Nc2ccc(Cl)cc2)O1	13.3
COc1ccc(S(=O)(=O)Nc2cccc3c2O[C@@H](CN(C)S(=O)(=O)c2cn(C)cn2)[C@H](C)CN([C@H](C)CO)C3=O)cc1	-2.6
Cc1noc(C)c1NC(=O)Nc1ccc2c(c1)C(=O)N([C@H](C)CO)C[C@@H](C)[C@H](CN(C)Cc1ccncc1)O2	-18.6
CN1C(=O)c2cc(NC(=O)c3cccc(F)c3)ccc2OC[C@H]2O[C@H](CC(=O)Nc3ccccc3)CC[C@H]21	3.1
C[C@@H]1CN([C@@H](C)CO)C(=O)c2cc(NC(=O)Nc3cccc4ccccc34)ccc2O[C@@H]1CN(C)S(=O)(=O)c1cccs1	-5.4
COc1ccc(C(=O)N2C[C@@H]3[C@H](c4ccccc42)[C@H](CO)N3Cc2ccc3c(c2)OCO3)cc1	-5.0
COc1ccc(S(=O)(=O)Nc2cccc3c2O[C@H](CN(C)C(=O)Nc2ccc(F)cc2)[C@H](C)CN([C@@H](C)CO)C3=O)cc1	3.7
Cc1ccc(S(=O)(=O)N(C)C[C@H]2Oc3ccc(NC(=O)CCC(F)(F)F)cc3CC(=O)N([C@H](C)CO)C[C@H]2C)cc1	4.4
CCC(=O)N1CC[C@@H]2[C@H]1c1cc(-c3ccccc3)ccc1N(C)[C@@H]2CO	-16.0
CO[C@@H]1CN(C)C(=O)c2ccc(NS(=O)(=O)c3ccc(C)cc3)cc2OC[C@H](C)NC[C@H]1C	-11.5
Cc1ccc(S(=O)(=O)N(C)C[C@@H]2Oc3ccc(NC(=O)CCC(F)(F)F)cc3CC(=O)N([C@H](C)CO)C[C@H]2C)cc1	15.2
COCC(=O)Nc1ccc2c(c1)C(=O)N(C)[C@H]1CC[C@H](CC(=O)NCCc3ccncc3)O[C@H]1CO2	4.0
Cc1ccc(-c2ccc([C@@H]3[C@@H](CO)N4CCCCN(C(=O)c5ccncc5)C[C@H]34)cc2)cc1	-9.8
COCC(=O)N1C[C@H]2[C@@H](c3ccccc31)[C@H](CO)N2C(=O)C1CCCCC1	-14.5

An excerpt from above in order of molecular weight, low to high:
SMILES	Yeast UUG start
CCC(=O)N1CC[C@@H]2[C@H]1c1cc(-c3ccccc3)ccc1N(C)[C@@H]2CO	-16.0
CO[C@@H]1CN(C)C(=O)c2ccc(NS(=O)(=O)c3ccc(C)cc3)cc2OC[C@H](C)NC[C@H]1C	-11.5
Cc1ccc(S(=O)(=O)N(C)C[C@H]2Oc3ccc(NC(=O)CCC(F)(F)F)cc3CC(=O)N([C@H](C)CO)C[C@H]2C)cc1	4.4
C[C@@H]1CN([C@@H](C)CO)C(=O)c2cc(NC(=O)Nc3cccc4ccccc34)ccc2O[C@@H]1CN(C)S(=O)(=O)c1cccs1	-5.4

(next part)
SMILES	Yeast UUG start
O=C(CN1CCOCC1)N1CCCCN2[C@H](CO)[C@@H](c3ccc(-c4ccccc4)cc3)[C@@H]2C1	7.3
CO[C@H]1CN(C)C(=O)c2ccc(NS(C)(=O)=O)cc2OC[C@@H](C)N(C)C[C@H]1C	8.9
CO[C@@H]1CN(C)C(=O)c2ccc(NC(=O)Nc3ccccc3F)cc2OC[C@@H](C)N(C)C[C@@H]1C	-4.2
COc1cccc(S(=O)(=O)N2C[C@@H](O)COC[C@H]3O[C@H](CC(=O)N4CCOCC4)CC[C@@H]32)c1	6.1
C/C=C/c1ccc([C@H]2[C@@H](CO)N(C(=O)CC)[C@H]2CN(C)S(C)(=O)=O)cc1	0.9
O=C(C1CCC1)N1CCCCN2[C@H](CO)[C@@H](c3ccc(C#CC4(O)CCCC4)cc3)[C@@H]2C1	5.4
CN1CCN(C(=O)C[C@H]2C[C@@H]3c4cc(NC(=O)CC5CC5)ccc4O[C@@H]3[C@H](CO)O2)CC1	-22.7
CO[C@@H]1CN(C)C(=O)c2cc(NC(C)=O)ccc2OC[C@@H](C)N(C(=O)c2ccccc2F)C[C@@H]1C	-0.9
CC(C)NC(=O)Nc1ccc2c(c1)CC(=O)N([C@@H](C)CO)C[C@@H](C)[C@H](CN(C)Cc1ccc(Cl)c(Cl)c1)O2	8.0
C[C@@H](NC(=O)C[C@H]1CC[C@H]2[C@@H](COC[C@@H](O)CN2C(=O)Nc2cc(Cl)cc(Cl)c2)O1)c1ccccc1	3.7
C[C@@H]1CN([C@H](C)CO)C(=O)c2cc(NS(=O)(=O)c3ccc(F)cc3)ccc2O[C@H]1CN(C)Cc1ccncc1	14.5
CNC[C@H]1Oc2c(NS(=O)(=O)c3c(C)noc3C)cccc2C(=O)N([C@H](C)CO)C[C@H]1C	-24.2
C[C@H](CO)N1C[C@H](C)[C@H](CN(C)C(=O)Nc2ccc3c(c2)OCO3)Oc2ccc(NS(=O)(=O)c3cccs3)cc2C1=O	-5.4
CN1C(=O)c2cc(NC(=O)Cc3cccs3)ccc2OC[C@@H]2O[C@H](CC(=O)NCC3CCCCC3)CC[C@@H]21	-1.1
Cc1ccc(S(=O)(=O)N(C)C[C@H]2Oc3ccc(NC(=O)CCCN(C)C)cc3C(=O)N([C@H](C)CO)C[C@H]2C)cc1	-8.8

SMILES	Yeast UUG start
COc1cccc(C(=O)Nc2ccc3c(c2)OC[C@@H](C)N(CC2CC2)C[C@@H](C)[C@H](OC)CN(C)C3=O)c1	-1.1
C[C@@H]1CN([C@@H](C)CO)C(=O)c2ccccc2-c2ccccc2CO[C@@H]1CN(C)C(=O)Nc1ccccc1	-0.6
CO[C@@H]1CN(C)C(=O)c2cc(NC(=O)c3cccc(F)c3)ccc2OC[C@@H](C)NC[C@H]1C	-6.7
COc1ccc(S(=O)(=O)N2CC[C@@H]3[C@H]2c2cc(C#Cc4ccccc4OC)ccc2N[C@@H]3CO)cc1	-25.5
CC(C)NC(=O)N(C)C[C@@H]1Oc2ccc(NS(=O)(=O)c3ccc(Cl)cc3)cc2C(=O)N([C@H](C)CO)C[C@@H]1C	7.1
COc1ccc(S(=O)(=O)N(C)C[C@@H]2OCc3ccccc3-c3ccccc3C(=O)N([C@H](C)CO)C[C@H]2C)cc1	8.3
CN1c2ccc(-c3ccccc3)cc2[C@@H]2[C@@H](CCN2S(=O)(=O)c2ccccc2F)[C@H]1CO	-5.4
O=C(CN1CCOCC1)N1CCCCN2[C@H](CO)[C@H](c3ccc(C#Cc4ccccc4F)cc3)[C@@H]2C1	44.0
O=C(C1CC1)N1CCCCN2[C@H](CO)[C@@H](c3ccc(C#CC4CCCC4)cc3)[C@H]2C1	6.9
C[C@@H](O)C#Cc1ccc([C@H]2[C@H](CO)N3CCCCN(C(=O)c4ccc5c(c4)OCO5)C[C@@H]23)cc1	4.6
